# Bioassay records (PubChem BioAssay)
# Sa ugtP lethal = compounds lethal to S. aureus RN4220 ugtP deletion mutant. OD600 growth, 16 h; some inactives read as strong as hits. growth inhibition, % (no concentration beside the values). hit rate 0.54% among 330,000. AID 1259309;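 active means z-score under -3 and OD600 up to 0.15 on both plates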;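 further: plate controls were untreated wells for no effect and antibiotic for full effect; wells of about 80 µL received 100 nL stock; the first replicate is given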
# Bead autofluor = compound fluorescence in toxin protease inhibitor counterscreen; AID 624483; hit rate 3.1% among 360,000; fluorescence intensity (no concentration beside the values); compound autofluorescence counterscreen, microsphere flow cytometry; active compounds read high;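 active means at least 3 SD above the mean of all compounds, about 16000 in these data; inconclusive means too few beads counted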;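 further: 100 nL of 1 mM stock went into each well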
# Sa RN4220 lethal = kills Staphylococcus aureus RN4220 | inhibition, % (no concentration beside the values) | hit rate 0.33% among 330,000 | S. aureus RN4220 growth, OD600, 16 h | AID 1259311;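 active means z-score of -3 or lower and OD600 up to 0.18 on both plates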;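 further: plate controls were untreated cells for no effect and reference antibiotic for full effect; stock transfer was 100 nL into about 80 µL; one replicate is shown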
# PrP UTR inh = inhibition of PrP 5' UTR reporter expression; cell-based PrP 5' UTR mRNA reporter, plate reader; inhibition, % (no concentration beside the values); hit rate 0.35% among 340,000;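 active means every replicate at 50% or more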;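 further: 0 = median of the neutral control wells; tested in H4 reporter cells; numbers are from one replicate; inactives centre near -14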
# Mtb hypoxia inh = reduces hypoxia-regulated biosensor signal in M. tuberculosis; fluorescence inhibition, % (no concentration beside the values); M. tuberculosis hypoxia-regulated fluorescent reporter, fluorescence; AID 1159583; hit rate 0.1% among 300,000;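 active means 35 to 45% if threefold the growth effect, above 45% if 1.5-fold the growth effect; inactive means the rest, general growth blockers included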;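 further: wells of about 50 µL received 100 nL stock; 0% = vehicle wells and 100% = reference inhibitor wells; whole bacteria with a GFP reporter of the hypoxia response; strong numbers were not always called active; many hits fall short of the cut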
# BJeLR viability = BJeLR cell viability loss | AID 1554 | inhibition, % (test concentration not listed) | BJeLR (HRASV12) viability, CellTiter-Glo ATP luminescence, 48 h; reference of the scale not given here | hit rate 0.17% among 300,000;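 active means replicate mean above 50%; inconclusive means above 50% but judged a plate artefact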;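 further: 50 nL library stock added to about 25 µL; numbers are from one replicate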
# Mtb hypoxia inh growth = recorded beside Mtb hypoxia inh, whose call it bears; growth inhibition, %; measured here: M. tuberculosis growth (absorbance);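 0% = vehicle and 100% = reference antibiotic; read after six days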
# Active calls of the source: *; u = inconclusive; x = not tested or not shown.
# Abbreviations – A = Sa ugtP lethal; B = Bead autofluor; C = Sa RN4220 lethal; D = PrP UTR inh; E = Mtb hypoxia inh; F = Mtb hypoxia inh growth; G = BJeLR viability
> Cc1ccc(C)c(N(C)C(=O)c2ccc3c(=O)n4c(nc3c2)CCCCC4)c1
  A: -4	B: 5855	C: 0.3	D: -6	E: -5	F: 7	G: -3

> CCc1ccccc1OCCCOc1ccc(OC)cc1
  A: x	B: 5901	C: x	D: -2	E: x	F: x	G: -6

> S=C1NCC(CC2CCCCC2)N1CC1CCCCC1 (configuration not stated)
  A: 4	B: x	C: -5.9	D: x	E: 13	F: 10	G: x

> CC(C(=O)Oc1ccc2c(c1)OCO2)N1C(=O)c2ccccc2C1=O (configuration not stated)
  A: 5	B: x	C: 4.2	D: x	E: -5	F: 12	G: 0

> CC(C)Cn1c(N)c(C(=O)COC(=O)c2ccc(Br)cc2)c(=O)n(C)c1=O
  A: -17	B: 8752	C: -2.2	D: -7	E: -4	F: 9	G: x

> O=C(NCCc1ccc(F)cc1)C(=O)NCC1CCCN1S(=O)(=O)c1ccccc1 (configuration not stated)
  A: 5	B: u	C: 3.0	D: -24	E: 5	F: 2	G: 15

> Cc1cc(OC(=O)c2cccs2)c2c3c(c(=O)oc2c1)CCCC3
  A: -23	B: 2053	C: 2.2	D: 1	E: -16	F: -8	G: 10

> COc1cccc(CNC(=O)CCCc2c[nH]c3ccccc23)c1
  A: -1	B: 5655	C: -0.8	D: -50	E: 4	F: -10	G: -3

> COc1ccc(CC(=O)Nc2c3c(nn2-c2cccc(Cl)c2)CS(=O)C3)cc1 (configuration not stated)
  A: 2	B: 4567	C: 5.0	D: -5	E: x	F: x	G: -4

> CCC1CN(C(=O)NCc2ccc(F)cc2)c2cc(Cl)ccc2O1 (configuration not stated)
  A: 2	B: 3647	C: -2.3	D: -8	E: 9	F: 8	G: 7

> COc1ccc(S(=O)(=O)N2CCCCC2)cc1NC(=O)c1ccc([N+](=O)[O-])o1
  A: x	B: 4410	C: x	D: -19	E: x	F: x	G: -2

> O=C(c1ccc(OC2CCN(Cc3ccccn3)CC2)cc1)N1CCC[C@H]1CO
  A: 14	B: 3843	C: 6.1	D: -1	E: -7	F: -7	G: -3

> COc1ccccc1C(=O)OCC(=O)Nc1cccc(S(=O)(=O)NC2=NCCCCC2)c1
  A: 4	B: 3759	C: 5.1	D: -3	E: 7	F: 8	G: x

> COc1ccc(CN(C(=O)c2cnccn2)C(C(=O)Nc2ccc(F)cc2)c2ccccc2)cc1 (configuration not stated)
  A: -3	B: 2790	C: 3.1	D: -12	E: -1	F: 3	G: x

> COc1ccc(OCCn2c(N)nc3ccccc32)cc1
  A: 6	B: 3931	C: 0.9	D: -30	E: 5	F: -5	G: -8

> O=C(N[C@@H](Cc1ccccc1)C(=O)OCc1ccccc1)c1nc[nH]c1C(=O)N[C@@H](Cc1ccccc1)C(=O)OCc1ccccc1
  A: x	B: 3503	C: x	D: -21	E: x	F: x	G: 9

> c1ccc(OCc2nc3ccccc3s2)cc1
  A: 6	B: 10812	C: 6.9	D: -88	E: -4	F: 13	G: -12

> COc1ccc(C(NC(=O)CNC(C)=O)C(=O)Nc2ccc3c(c2)OCCO3)cc1 (configuration not stated)
  A: 4	B: 4690	C: -0.8	D: -2	E: x	F: x	G: 5

> CCCCNC(=S)N(C)N=Cc1ccc2c(c1)OCO2
  A: 1	B: x	C: 4.2	D: x	E: 4	F: 3	G: x

> CCCCNC(=O)c1c(O)c2cccc3c2n(c1=O)CCC3
  A: -1	B: 2448	C: -11	D: -1	E: 8	F: 8	G: -8

> Cc1c(CC(=O)O)c(=O)oc2c(C)c(OCc3ccc(F)cc3Cl)ccc12
  A: 6	B: 3385	C: 4.7	D: -21	E: -2	F: 8	G: 11

> Cc1ccc(-c2ccc(/C=N/NC(=O)Cc3nnc(N)s3)o2)cc1Cl
  A: x	B: 5360	C: x	D: -14	E: x	F: x	G: -1

> O=C(CCC(=O)NNC(=S)Nc1ccccc1)NCc1ccccc1
  A: 7	B: 8049	C: 4.2	D: -14	E: 8	F: 6	G: 3

> CCOc1cc2[nH]c(=O)n(CCCCC(=O)NC3CCCCCC3)c(=O)c2cc1OCC
  A: 5	B: 4070	C: 0.8	D: -12	E: 1	F: 1	G: -16

> O=P(O)(O)Cc1ccccc1OP(=O)(c1ccccc1)c1ccccc1
  A: 11	B: 6038	C: 4.3	D: -74	E: 6	F: 7	G: 3

> O=C(CN1CCCCC1)NN=Cc1ccc(Cl)cc1Cl
  A: 7	B: x	C: 1.1	D: x	E: 0	F: -6	G: x

> Cc1c(C(=O)NCc2ccc3c(c2)OCO3)oc2ccc(S(=O)(=O)N3CCC(C)CC3)cc12
  A: 4	B: 4280	C: 5.4	D: -8	E: 5	F: 8	G: -14

> Cc1cc(-n2c(SCC(=O)NCCC3=CCCCC3)nc3n[nH]c(C)c3c2=N)ccc1Cl
  A: -7	B: 5810	C: 1.2	D: 7	E: 6	F: 3	G: 59*

> c1cc2c(cc1-c1[nH]ncc1CN1CC3C[C@@H]4CC1C[C@H](C3)C4)OCO2
  A: 3	B: 2215	C: 1.0	D: -20	E: -4	F: -3	G: -1

> O=C(CCS(=O)(=O)c1cccc2nsnc12)N1CC(=O)N(CCc2ccccc2)C(=O)C1
  A: -2	B: 3270	C: 2.2	D: -3	E: 4	F: 2	G: -5

> Cc1ccccc1NC(=O)NC1(C(=O)N2CCC(C(N)=O)CC2)CCCCC1
  A: -1	B: 5809	C: -2.3	D: -9	E: 11	F: -1	G: -5

> O=C(Nc1cccc(F)c1)N1CCN(C/C=C/c2ccccc2)CC1
  A: 3	B: 3623	C: 3.8	D: -16	E: 4	F: 3	G: 4

> CC1CCCC(NC(=O)C2CCN(S(=O)(=O)c3cnc[nH]3)CC2)C1C (configuration not stated)
  A: 6	B: 5557	C: 4.6	D: -7	E: 17	F: 11	G: 6

> COc1cc2c(cc1O)CCN(C(=O)CSc1nncn1C)[C@@H]2C
  A: 4	B: 5515	C: 1.5	D: 5	E: 12	F: 12	G: x

> COc1ccc(Oc2cc(C)nc(Cl)n2)nn1
  A: 5	B: 3113	C: 5.8	D: -22	E: 0	F: 0	G: -6

> COCCn1c(C)cc(/C=C2/NC(=O)N(c3cccc(Cl)c3)C2=O)c1C
  A: 4	B: 2703	C: 3.9	D: -28	E: 3	F: 20	G: 7

> CN1Cc2c(c(C#N)c(N)n(C)c2=S)CC1(C)C
  A: -9	B: 4598	C: 1.3	D: -1	E: -1	F: 10	G: -6

> CC(=O)[C@H]1CCC2C3CC[C@H]4C[C@@H](O)CC[C@]4(C)C3CC[C@@]21C (some centres not stated)
  A: 24	B: 3853	C: -1.0	D: 0	E: 1	F: 6	G: x

> C#CCOCCOCCOCCNc1nc(N2CCOCC2)nc(N2CCN(C(=O)C(Cc3cc4ccccc4[nH]3)n3cc(C(N)C(C)CC)nn3)CC2)n1 (configuration not stated)
  A: -7	B: x	C: -0.5	D: x	E: 3	F: -5	G: x

> Brc1ccccc1OCCOc1cccc2cccnc12
  A: 4	B: 2000	C: 7.4	D: -35	E: 15	F: 10	G: 4

> Cc1nn2c(NCCCN3CCOCC3)c3c(nc2c1-c1ccccc1)CCC3
  A: -5	B: 3324	C: 0.0	D: -11	E: 4	F: 9	G: -14

> Cc1ccc2nc(SCC(=O)c3c(C)[nH]c4ccccc34)[nH]c2c1
  A: -24	B: 1978	C: 2.5	D: -12	E: -3	F: 18	G: 0

> CCC(CO)NC1=CC(=O)CCC1 (configuration not stated)
  A: 5	B: 2642	C: 2.1	D: -14	E: 12	F: -6	G: 12

> Cc1nc2ccccc2c(C)c1C(=O)c1ccccc1
  A: 7	B: 3921	C: 4.1	D: -21	E: 8	F: 8	G: -1

> Cc1ccc(NC(=O)COC(=O)C2CC3C=CC2C3)cc1S(=O)(=O)N1CCCCC1 (configuration not stated)
  A: -6	B: 9622	C: 8.2	D: 3	E: 4	F: -1	G: -2

> COc1ccc(C(=O)Nc2cc(C)on2)cc1
  A: -6	B: 16745*	C: -4.1	D: -20	E: 4	F: 4	G: 2

> Cc1cc(Cl)ccc1OCC(=O)Nc1nc(-c2cccnc2)cs1
  A: 5	B: 4827	C: 5.3	D: -27	E: 6	F: 8	G: 10

> COc1ccc(CNC(=S)N2CCN(S(=O)(=O)c3cccc(F)c3)CC2)cc1
  A: 3	B: 3356	C: 4.2	D: -7	E: 9	F: -3	G: -6

> COc1cccc(C(C(=O)NCC2CCCO2)N(C(=O)Cn2nnc3ccccc32)c2ccccc2C(C)=O)c1OC (configuration not stated)
  A: 12	B: 4176	C: 3.4	D: -8	E: 2	F: 0	G: -7

> NC(=O)c1ccc(C(F)(F)F)n(Cc2ccc(F)c(F)c2)c1=O
  A: -16	B: 4654	C: 0.3	D: -11	E: -4	F: -7	G: -1

# (cont.)
# Abbreviations – A = Sa ugtP lethal; B = Bead autofluor; C = Sa RN4220 lethal; D = PrP UTR inh; E = Mtb hypoxia inh; F = Mtb hypoxia inh growth; G = BJeLR viability
> CCOc1ccc(-c2csc(NC(=O)C3CCCO3)n2)cc1 (configuration not stated)
  A: 22	B: 21480*	C: 1.6	D: -10	E: 7	F: 5	G: 0

> CCCC(=O)Nc1cccc(NC(=O)CN2CCN(c3ccccc3OC)CC2)c1
  A: -10	B: 3269	C: -11	D: -18	E: 5	F: 13	G: 5

> O=C(CSc1nc2ccccc2s1)Nc1ccc(C(=O)O)cc1
  A: 2	B: 3262	C: -0.6	D: -24	E: -8	F: 9	G: 1

> Cc1ccc(NS(=O)(=O)c2c(C(=O)N3CCCCCC3)c(C)n(C)c2C)c(C)c1
  A: 2	B: 5789	C: 0.4	D: 0	E: 2	F: -9	G: 2

> O=C(O)COn1c(-c2ccccc2)nc2ccc(Cl)cc21
  A: 7	B: 1985	C: -2.9	D: -23	E: 1	F: 3	G: -1

> O=C(Cn1cnc2c(nnn2-c2ccc(F)cc2)c1=O)N1CCCc2ccccc21
  A: 6	B: 9733	C: -5.0	D: -1	E: 8	F: 7	G: -6

> COc1cccc(C(C(=O)NCC2CCCO2)N(CC2CCCO2)C(=O)CN2C(=O)c3ccccc3S2(=O)=O)c1 (configuration not stated)
  A: 4	B: 4325	C: 3.3	D: -53	E: 17	F: 4	G: -1

> O=[N+]([O-])c1cccc(-c2nc3ccccc3s/c2=N/O)c1
  A: x	B: 3679	C: x	D: -15	E: x	F: x	G: -11

> CN(C)c1ccc(C(=O)Nc2cc(C(F)(F)F)ccc2-n2cncn2)cc1
  A: -7	B: 4135	C: -1.2	D: -14	E: x	F: x	G: -3

> Cc1cccc(NC(=S)N2CCCCC2c2cccnc2)c1C (configuration not stated)
  A: 1	B: 4648	C: 2.8	D: x	E: 16	F: 4	G: 5

> CC(=O)Nc1ccc(C(=O)OCC(=O)NC2CCCCCCC2)cc1
  A: 6	B: 4422	C: 4.7	D: -14	E: 4	F: 2	G: 12

> CCOC(=O)N1CCN(C(=O)CCc2ccc(S(=O)(=O)NC(C)(C)C)cc2)CC1
  A: 4	B: 3651	C: 4.3	D: -12	E: 1	F: 7	G: -2

> O=C(NCC(c1cccnc1)N1CCOCC1)c1ccco1 (configuration not stated)
  A: 0	B: 4301	C: 1.3	D: 2	E: 7	F: 18	G: -5

> O=C(Oc1ccc2ccccc2c1Br)N1CCCCCC1
  A: 21	B: 4293	C: 2.1	D: -62	E: 5	F: 10	G: 15

> COc1ccc(-n2nc(N)c(C(N)=O)n2)cc1
  A: 4	B: 4591	C: 2.9	D: -27	E: -3	F: 2	G: 1

> CCSc1cc(C2C(C#N)=C(N)Oc3n[nH]c(C)c32)c(C)o1 (configuration not stated)
  A: 0	B: 4199	C: -0.4	D: -16	E: x	F: x	G: 50
